Rango complex inh: inhibitors of Rango-importin beta complex formation; AID 540263; Q14974; Rango CFP/YFP FRET sensor + importin beta, 45 min; Potency, µM (highest dose often 92.2 µM), without a hit: at the highest dose inhibition of complex formation; 340,000 tested, 0.031% active; active = rising FRET ratio curve, often small or poorly fitted; inconclusive = mostly compound fluorescence or quenching in the first reads; inactive = flat curves in all reads;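 note: potency is the fitted concentration of half-maximal effect; 0% = DMSO wells and 100% = buffer wells lacking importin beta; nearly all actives have a fitted effect of over 15% in size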
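FRET biosensor Rango (snurportin 1 IBB between N-terminal EYFP and C-terminal Cerulean), 50 nM in PBS/1 mM DTT/0.02% Tween-20/0.1% BSA, preincubated 5 min RT with compound; 0.125 microM importin beta added, 45 min RT, CFP/YFP FRET ratio read.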
GLA inh pH 4.5: inhibitors of human alpha-galactosidase A at pH 4.5 | P06280 | AID 1467 | purified enzyme, 4-MU-alpha-Gal fluorescence, pH 4.5 | activity change, negative = inhibition, % at 105 µM | 230,000 tested, under 10 active; inconclusive = small, poorly fitted or top-dose-only inhibition, or a rising curve; inactive = flat fitted curve, though single readings scatter; no compound was filed as active;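 note: 0% = full activity with enzyme and -100% = basal without enzyme; dose as in the result columns while the protocol names 77 µM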
Target sequence (P06280 whole entry, looked up): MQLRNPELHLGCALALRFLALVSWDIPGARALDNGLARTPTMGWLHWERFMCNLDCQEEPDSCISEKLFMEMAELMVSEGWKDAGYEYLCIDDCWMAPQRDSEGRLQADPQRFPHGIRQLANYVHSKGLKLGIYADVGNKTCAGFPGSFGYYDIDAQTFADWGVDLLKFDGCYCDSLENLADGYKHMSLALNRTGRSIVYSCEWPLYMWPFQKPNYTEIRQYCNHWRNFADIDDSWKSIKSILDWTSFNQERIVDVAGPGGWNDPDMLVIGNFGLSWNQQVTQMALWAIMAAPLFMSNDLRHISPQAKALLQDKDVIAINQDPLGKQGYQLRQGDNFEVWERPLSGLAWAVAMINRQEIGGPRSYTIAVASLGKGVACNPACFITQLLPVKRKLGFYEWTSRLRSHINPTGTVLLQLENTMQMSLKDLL
miR-21 FLuc: raises the signal of a miR-21 reporter; HeLa miR-21 FLuc reporter, luciferase, 48 h; Potency, µM (doses to about 38.3 µM), for the others: top-dose reporter change, positive = more light; 340,000 tested, under 10 active; active = well fitted rising curve with a large enough effect; inconclusive = small, poorly fitted or top-dose-only effect; inactive = no such curve, though single readings can be large or run the other way;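 note: % of control where 0% means no effect; miR-21 action dims this reporter so a rising signal means less miR-21 action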
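HeLa cells endogenously expressing miR-21, stably carrying CMV-driven firefly luciferase with a downstream miR-21 binding site, 2000 cells/well. Titrations up to approximately 40 uM, 48 hours; luciferase luminescence read.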
Rango dissoc inh: inhibition of RanGTP-driven Rango-importin beta dissociation | O95149+P62826 | Biochemical FRET Rango-importin beta, RanGTP-induced dissociation | Potency, µM (series often up to 46.1 µM), without a hit: at the highest dose activity change, negative = inhibition | 340,000 tested, 0.071% active; active means falling FRET ratio curve, often poorly fitted, with flat reads before Ran was added; inconclusive means other falling curves, or compound fluorescence or quenching; inactive means flat or rising ratio curve;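 note: potency is the fitted concentration of half-maximal effect; % of control where 0% means no effect; nearly all actives have a fitted effect of over 45% in size; -100% = wells without RanGTP and RCC1; the record marks most hits as doubtful in a second field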
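FRET read at 45 min, room temperature: inhibitors block the CFP/YFP signal rise when RanGTP (0.6 uM Ran, 2 mM GTP, 0.2 uM RCC1) frees Rango (0.1 uM) from importin beta (0.25 uM). Pre-read after 5 min compound exposure flags interference.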
Active calls of the source: *; ? = inconclusive; · = not tested or not shown; [ ] = dose if it differs, or a comment. These rows are one share of the data (hit frequency here may not be typical).

SMILES	Rango complex inh	GLA inh pH 4.5	miR-21 FLuc	Rango dissoc inh
CC1CCC(NC(=O)CCS(=O)(=O)c2ccc3c(c2)oc(=O)n3C)CC1 (stereo unspecified)	2.2%	·	-3%	3%
N#CCCN(Cc1cccnc1)C(=O)Nc1cccc(Cl)c1	3.6%	4	-6%	-9%
Cc1cc(C(=O)CCC(=O)N(C)CC(=O)Nc2ccccc2Br)c(C)s1	0.3%	·	·	9%
O=C(O)CCSc1ncnc2sc(-c3ccccc3)cc12	?	-2	29%	-9%
COc1cccc(CN2CCN(c3ccc(F)cc3)C2=O)c1	0.5%	-1	-14%	-6%
CCCCOc1ccc(C(=O)NCC(=O)N2CC(C)CC(C)C2)cc1 (stereo unspecified)	-1.8%	·	·	28%
COCCNC(=O)C(c1cccs1)N(C(=O)Cn1nnc2ccccc21)c1ccc2c(c1)OCO2 (stereo unspecified)	-4.3%	0	-13%	1%
O=C(NCCc1ccccc1)c1cccs1	2.6%	7	-25%	-9%
COc1ccc(-c2cc(C(N)=O)nc(N3CCCCCC3)n2)cc1	?	5	-10%	?
CCN(CC)CCCNC(=O)Cc1c(C(=O)O)n(C)c2ccccc12	-2.4%	-32	1%	-15%
CCC(C)C(NC(=O)C1CCC(C)CC1)C(=O)NCCCN1CCCCC1CC (stereo unspecified)	0.1%	3	-3%	7%
Cc1cccc(NC(=O)NC(=S)NC(=O)c2ccccc2)c1	1.8%	-5	-48%	31%

The closing 2 records of the section before open the next one:
SMILES	Rango complex inh	GLA inh pH 4.5	miR-21 FLuc	Rango dissoc inh
CCC(C)C(NC(=O)C1CCC(C)CC1)C(=O)NCCCN1CCCCC1CC (stereo unspecified)	0.1%	3	-3%	7%
Cc1cccc(NC(=O)NC(=S)NC(=O)c2ccccc2)c1	1.8%	-5	-48%	31%
CCc1ccc(/C=C2\Oc3ccc(C(=O)OC)cc3C2=O)cc1	-0.3%	-13	-8%	1%
CSc1ccccc1C(=O)N(C)Cc1ccccc1	-2.9%	2	2%	-25%
CCN(CC)C(=S)NC(=O)c1ccc(F)cc1	-0.4%	10	3%	-8%
CCCn1nnc(NC(=O)C(C)C)n1	-1.6%	4	-1%	0%
CC1Cc2nc(SCC(=O)N3CCN(c4ccccc4)CC3)n(C)c(=O)c2S1 (stereo unspecified)	5.5%	0	3%	10%
Cc1ccc(C)c(NC(=O)C(Sc2nc3ccccc3c(=O)n2CC(C)C)c2ccccc2)c1 (stereo unspecified)	0.8%	-13	1%	-7%
COc1ccc(/C=C2\SC(=S)N(CCC(=O)N3CCCCC3CCO)C2=O)cc1 (stereo unspecified)	-0.1%	·	1%	3%
COc1cccc(NC(=O)CN(C)C(=O)Cc2ccc(Cl)cc2Cl)c1	-2.3%	·	7%	0%
Cc1ccc(NC(=O)c2ccc(NC(=O)C3CCCCC3C(=O)O)cc2)cc1 (stereo unspecified)	0.3%	·	8%	4%
CCCOc1nc(C)cc(COC)c1C(N)=O	-3.0%	-7	3%	-26%
O=c1[nH]c(CN2CCc3ccccc32)nc2scc(-c3cccs3)c12	2.9%	-4	3%	-14%
COc1ccc(NC(=O)CSc2nccn2Cc2ccccc2)c(OC)c1	-2.6%	·	-22%	-7%

Filtered by structure, the compounds so far with fluorine
SMILES	Rango complex inh	GLA inh pH 4.5	miR-21 FLuc	Rango dissoc inh
COc1cccc(CN2CCN(c3ccc(F)cc3)C2=O)c1	0.5%	-1	-14%	-6%
CCN(CC)C(=S)NC(=O)c1ccc(F)cc1	-0.4%	10	3%	-8%

Next section.
SMILES	Rango complex inh	GLA inh pH 4.5	miR-21 FLuc	Rango dissoc inh
COc1cc(NC(=O)c2cc(C)on2)cc(OC)c1OC	8.3%	-3	6%	2%
COc1cccc(-n2nnnc2SCC(=O)NC2CCCC2)c1	0.1%	2	-10%	1%
COC(=O)c1ccc(/C=N/NC(=O)C(=O)NCC2CCCO2)cc1 (stereo unspecified)	-1.2%	-3	1%	9%
O=C(c1ccccc1)N(Cc1nc2ccccc2c(=O)[nH]1)C1CCCCC1	3.3%	3	0%	-1%
CCOc1ccc(NC(=O)CN(C)C(=O)CSCc2ccc(C)cc2)cc1OCC	?	·	·	0%
C(#Cc1ccccc1)C[N+]1(CC#Cc2ccccc2)CCCCC1	-0.7%	4	2%	26%
Cc1cc(N2CCCCC2)nc(N2CCCCC2)n1	-2.5%	4	1%	6%
C=COC(=O)CSc1snc(SCC(=O)OC)c1C#N	4.4%	-22	0%	?
CC(C)(C)c1ccc(S(=O)(=O)NCc2ccc(C(=O)N3CCOCC3)cc2)cc1	-1.6%	-5	0%	1%
CCCCc1ccc(NC(=O)CSC2=NN3CCCC(=O)N=C3S2)cc1	2.3%	·	2%	21%
NS(=O)(=O)c1ccc(N=Nc2c(-c3ccccc3)[nH]n(-c3nc(-c4ccccc4)cs3)c2=O)cc1	0.8%	-11	-3%	6%
COc1cc(OC)cc(C(=O)NC(=S)NNC(=O)[C@H]2C[C@@H]2c2ccccc2)c1	0.7%	-8	0%	-11%
Cc1c(C(=O)N2CCN(Cc3ccccc3)CC2)oc2c1C(=O)CCC2	4.3%	·	-7%	1%
Cc1cccc(C)c1NC(=O)Cn1c(CN2CCCCC2)nc2ccccc2c1=O	-3.3%	-7	-6%	0%
CC(=O)c1ccc(COC(=O)c2ccccc2NC(=O)C(C)C)cc1	·	-4	-7%	·
Cc1ccc(N/N=C2\CC(=O)c3ccccc32)cc1Cl	·	-2	-1%	·
COc1ccc(NC(=O)CC2SC(=O)NC2=O)cc1 (stereo unspecified)	4.9%	2	-1%	-12%
CCOc1ccc(N(CC(=O)NC2CCCC2)S(=O)(=O)c2c(C)[nH]c(=O)[nH]c2=O)cc1	-1.2%	5	-3%	-7%
Cc1cc(Cl)c(C(=O)Nc2cccc(C(F)(F)F)c2)c(C)n1	3.2%	·	20%	-7%
CC1(C)Cc2c(cnn2-c2cccc(F)c2)C(NC(=O)C2CCOCC2)C1 (stereo unspecified)	0.3%	·	-8%	-4%
O=C1C=C(c2ccc(CO)cc2)C[C@@H](c2ccc3c(c2)OCO3)C1	1.0%	·	·	-14%
Cc1ccc2c(c1)N(C(=O)CCC(=O)NC1CCC(C)CC1)CCO2 (stereo unspecified)	-1.8%	·	-10%	-13%
CCc1ccccc1NC(=O)CSc1nnc(-c2ccncc2)o1	-3.1%	-2	-4%	-12%
Cc1[nH]c2ccccc2c(=O)c1CN1CCCCCC1	-4.9%	·	-5%	16%
CC1(C)NC(=O)N(CCOc2ccc3c(c2)CCC3)C1=O	0.3%	-15	-14%	-20%
O=c1c2c3c(sc2nc2n1CCCC2)CCC3	-4.6%	2	-23%	3%
COc1ccc(CNS(=O)(=O)c2cc(CN3C(=O)c4cccnc4C3=O)ccc2OC)cc1	-0.5%	·	0%	-5%
Cc1cc2oc(=O)cc(CN3CCOCC3)c2cc1Cl	-1.4%	·	-2%	-8%
COc1ccc(N2CCOCC2)c(NC(=O)c2cc3ccccc3o2)c1	3.7%	·	-9%	-8%
CCN1C(=O)CCN(C2CCCC2)c2nc(Nc3ccc(C(=O)NC4CCN(C)CC4)cc3OC)ncc21	1.3%	·	·	8%
COc1ccc(OCCCC(=O)OCC(=O)Nc2ncc(Cl)cc2Cl)cc1	0.6%	·	·	-23%
O=C(NC(=O)N1CCN(c2ccc([N+](=O)[O-])cn2)CC1)c1c(Cl)cccc1Cl	-1.1%	-1	3%	11%
CCCCn1c(-c2cccc(C)c2)nc2cc3[nH]c(=O)c(C(C)C)nc3cc21	?	·	21%	?
O=C(COc1cccc(Cl)c1)Nc1nc(-c2ccc(S(=O)(=O)N3CCOCC3)cc2)cs1	0.1%	-8	0%	1%
COc1ccc(Cn2c(C3CC3)nc3ccc(NC(=O)c4ccco4)cc3c2=O)cc1	1.2%	0	-30%	6%
Cc1ccc(C2(c3ccccc3)NC(=O)N(CC(=O)NCc3ccco3)C2=O)cc1C (stereo unspecified)	0.4%	·	·	-24%

Of the compounds above, 4 contain a furan ring, fused or not.
SMILES	Rango complex inh	GLA inh pH 4.5	miR-21 FLuc	Rango dissoc inh
Cc1c(C(=O)N2CCN(Cc3ccccc3)CC2)oc2c1C(=O)CCC2	4.3%	·	-7%	1%
COc1ccc(N2CCOCC2)c(NC(=O)c2cc3ccccc3o2)c1	3.7%	·	-9%	-8%
COc1ccc(Cn2c(C3CC3)nc3ccc(NC(=O)c4ccco4)cc3c2=O)cc1	1.2%	0	-30%	6%
Cc1ccc(C2(c3ccccc3)NC(=O)N(CC(=O)NCc3ccco3)C2=O)cc1C (stereo unspecified)	0.4%	·	·	-24%

(continued)
SMILES	Rango complex inh	GLA inh pH 4.5	miR-21 FLuc	Rango dissoc inh
Cc1ccc(C(=O)Nc2cccc(C(F)(F)F)c2)cc1NC(=O)c1cnnc2ccccc12	-5.1%	-1	2%	22%
Fc1ccc(-c2nc3ccccc3[nH]2)cc1	5.1%	8	-43%	?
COc1cccc(-c2cn3nc4c(nc3n2)CCCC4)c1	?	-5	21%	?
N#Cc1cccc(NC(=O)c2ccccc2C(=O)O)c1	0.4%	-6	-9%	0%
NCC(c1ccccc1Cl)c1c[nH]c2ccccc12 (stereo unspecified)	0.1%	·	9%	7%
COc1ccc2nc(NC(=O)CCNS(=O)(=O)c3ccc4c(c3)oc(=O)n4C)sc2c1	-1.3%	-1	-1%	-1%
Cc1ccc(NC(=O)COC(=O)c2cccc(OC(F)F)c2)cc1S(=O)(=O)N1CCCCC1	0.0%	·	·	26%
CC1(C)NC(=O)N(CC(=O)OCC(=O)c2ccc(Br)s2)C1=O	-0.7%	·	·	3%
CC(=O)C1=C(C)NC(=O)NC1c1cccs1 (stereo unspecified)	-2.5%	8	2%	-11%
COc1ccccc1NC(=O)CN1CCN(c2ccccc2OC)CC1	-2.6%	4	-7%	17%
CCSc1nnc2c(n1)[nH]c1c(C)cccc12	2.1%	2	1%	4%
CC1=C(C(=O)N2CCOCC2)C(c2cccc(C)c2)NC(=S)N1 (stereo unspecified)	-1.1%	5	-3%	-10%
C#CCOCCOCCOCCNc1nc(N2CCN(C(=O)[C@H](CC(N)=O)n3cc(C(N)[C@H](C)CC)nn3)CC2)nc(N2CCN(C(=O)[C@H](CC(N)=O)n3cc(C(N)[C@@H](C)CC)nn3)CC2)n1 (stereo partly specified)	-2.7%	·	·	-7%
CCn1nc(C(=O)OCC(=O)NCCN2C(=O)CSC2=O)c2ccccc2c1=O	-2.2%	0	-2%	32%
COC(=O)c1ccc(C2/C(=C(\O)c3cccc(OC)c3)C(=O)C(=O)N2CCCN2CCOCC2)cc1 (stereo unspecified)	-1.6%	6	-8%	59%
COc1cc(CN2CCN(C(=O)c3ccc(-c4ccccc4)cc3)CC2)cc(OC)c1OC	0.6%	1	-30%	35%
O=C(NC1=NCCS1)C1COc2ccccc2O1 (stereo unspecified)	-0.8%	-6	?	-7%
CC(NC(=O)NC(=O)c1ccc(Cl)cc1)c1ccccc1 (stereo unspecified)	1.4%	·	3%	0%
CC1CC(C)CN(C(=O)c2ccc(CSc3nc4ccncc4[nH]3)cc2)C1 (stereo unspecified)	-0.6%	5	10%	-1%
Cc1cc(C)c(C(=O)COC(=O)C2CCN(c3ccc(C(F)(F)F)cn3)CC2)c(C)c1	-4.4%	·	·	-14%
O=C(NCC(=O)N1CCN(Cc2ccc3c(c2)OCO3)CC1)c1ccccc1F	0.6%	·	·	29%
O=C(CCNC(=O)c1ccccc1Cl)Nc1nccs1	-2.7%	0[21.1 µM]	?	11%
CN1C(=O)/C(=C/c2ccccc2F)Sc2ccc(C(=O)N3CCCC3)cc21	0.6%	·	5%	-17%
CN(CC(=O)Nc1ccc(Cl)c(C(F)(F)F)c1)C(=O)c1cc(=O)c2ccccc2o1	1.9%	·	·	0%
Cc1ccc(CSc2nnc(-c3ccccn3)n2C)cc1	-0.5%	0	-42%	14%
CCn1c(CNC(=O)Cc2ccc(OC)cc2)nnc1SCC(=O)Nc1ccc(C(=O)O)cc1	0.6%	1	-1%	-5%
CCOc1ccc(S(=O)(=O)N2CCCC(C(=O)NC3CC3)C2)cc1Cl (stereo unspecified)	0.2%	·	·	3%
COc1ccc(CCNCC(=O)Nc2ccc(C)c(Br)c2)cc1OC	-4.5%	·	-3%	33%

Screening data as filed in PubChem.
